TRPML1 agonist: human mucolipin-1 channel agonism; Q9GZU1; TRPML1-expressing cells, Ca2+ dye fluorescence, FDSS; host cell line not named in the record; reference of the full effect not given here; activation, % (test concentration not listed); 410,000 tested, 0.12% active; in the data active = activation above about 50%; inconclusive = about 30% to 50%; inactive = below about 30%; note: 0% is about no effect; the text of the record puts the active cut at 80%
Target sequence (Q9GZU1 whole entry, looked up): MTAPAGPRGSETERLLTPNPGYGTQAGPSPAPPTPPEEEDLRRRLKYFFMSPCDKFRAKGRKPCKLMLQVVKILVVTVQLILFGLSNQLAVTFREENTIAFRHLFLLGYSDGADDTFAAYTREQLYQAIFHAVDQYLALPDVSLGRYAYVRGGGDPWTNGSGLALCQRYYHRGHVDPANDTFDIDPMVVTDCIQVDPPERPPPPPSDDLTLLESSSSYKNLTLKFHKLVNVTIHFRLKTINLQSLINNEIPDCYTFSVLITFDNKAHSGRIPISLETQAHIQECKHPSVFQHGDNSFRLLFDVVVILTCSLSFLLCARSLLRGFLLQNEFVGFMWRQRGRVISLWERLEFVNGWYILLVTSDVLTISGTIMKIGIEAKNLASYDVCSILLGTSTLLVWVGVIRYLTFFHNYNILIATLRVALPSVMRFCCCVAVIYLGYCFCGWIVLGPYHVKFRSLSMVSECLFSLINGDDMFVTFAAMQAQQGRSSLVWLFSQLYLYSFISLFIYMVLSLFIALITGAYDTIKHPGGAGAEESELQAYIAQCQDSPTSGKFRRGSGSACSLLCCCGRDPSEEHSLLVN
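Kinetic FDSS Ca2+ read in Tet-induced TRPML1-DL cells (ABD Ca8 dye plus quencher, 45-90 min RT loading): baseline, then compound, then 110 s agonist window; EC80 agonist 54-4 at 4uM final added afterwards for a 110 s antagonist window.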
ClpP mod: qHTS Assay for Activators of ClpP; ATP-dependent Clp protease proteolytic subunit (Bacillus subtilis (strain 168)), P80244; purified B. subtilis ClpP, FRET peptide cleavage, 20 min; Potency, µM (highest dose often 57.5 µM), for the others: at the top dose activity change, negative = active; 340,000 tested, 1.9% active; active = well fitted falling curve with a large enough effect; inconclusive = small, poorly fitted or top-dose-only effect; inactive = no such curve, though single readings can be large or run the other way; note: potency is the fitted concentration of half-maximal effect; the source files actives as falling curves though it sought activators and does not explain the sign; nearly all actives have a fitted effect of over 65% in size; many hits overshoot -100%
Target sequence (P80244 whole entry, looked up): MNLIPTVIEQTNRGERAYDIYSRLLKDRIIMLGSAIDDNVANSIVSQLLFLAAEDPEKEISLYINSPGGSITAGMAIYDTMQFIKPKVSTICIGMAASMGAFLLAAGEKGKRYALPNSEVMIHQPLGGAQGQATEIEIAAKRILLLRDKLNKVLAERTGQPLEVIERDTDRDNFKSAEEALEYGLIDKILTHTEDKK
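Buffer: 100 mM Tris/HCl pH8, 100 mM KCl, 0.05% low protease BSA, 2.5% glycerol, 0.01% Tween-20. ClpP 10 microg/mL final; 20 min RT; delta FRET normalized to ADEP and DMSO controls.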
Numbers without * were called inactive; ? = inconclusive. The list is partial (hit frequency here may not be typical).

SMILES	TRPML1 agonist	ClpP mod
O=C(OCC(O)C1OC(c2ccccc2)OC(COC(=O)c2ccccc2)C1O)c1ccccc1 (stereo not given)	-0.6	0.1%
COc1ccc(-c2[nH][nH]c(=O)c2NC(=O)c2ccc(C)cc2)cc1	0.3	-1.4%
O=C1C=CC(=NN=C(c2ccccc2)c2ccccc2)C=C1	-0.4	4.8%
COc1ccc(C(C)(O)c2nc(-c3ccccc3C)cs2)cc1 (stereo not given)	-0.3	-4.9%
Cc1ccccc1-c1nc(NCC2CC2)nc2ccsc12	1.5	4.8%
Cc1ccc(CNC(=O)Nc2nnc([C@H]3C[C@H](O)[C@@H](CO)O3)s2)cc1	-0.2	-3.3%
CC(C)(C)NC(=O)C1(C)CCC(=O)N1CC(F)(F)F (stereo not given)	-0.2	-3.7%
O=C1NC[C@H](CC2CCCCC2)N(CCc2cccc3ccccc23)C1=O	-0.6	-2.7%
COc1cccc(CNc2nc3cc(-c4ccc(OC)c(OC)c4)sc3c(=O)n2C)c1	-0.9	3.8%
CC(=O)Nc1cccc(-c2csc(C(NC(C)=O)c3ccc(F)c(F)c3)n2)c1 (stereo not given)	-0.7	0.7%
O=C(Nc1ccc(N2CCOCC2)cc1)c1csc([C@H]2C[C@H](O)[C@@H](CO)O2)n1	-0.2	-3.1%
CCOC(=O)[C@]12CCC=C1N(Cc1ccc(Cl)cc1Cl)C(=O)[C@H](CC(=O)NCc1ccccc1)C2	0.5	1.3%
COc1ccc(C(N)c2csc(Nc3nncc4ccccc34)n2)cc1 (stereo not given)	0.7	-4.6%
Cc1nc(NC(=O)C(C)(C)C)sc1C(=O)Cn1cc(CCc2ccccc2)nn1	-0.6	0.0%
FC(F)C(F)(F)Oc1cccc(Nc2nccn3c(-c4cccc5ccccc45)cnc23)c1	-0.3	3.8%
O=C1NC[C@H](Cc2ccc(O)cc2)N(C[C@@H]2CCCN2C[C@H](Cc2ccc(O)cc2)N2C[C@H](Cc3ccccc3)N(CC3CCCCCC3)C(=O)C2=O)C1=O	-0.4	1.2%
CCCNC(=O)c1cc(C2CCCCN2S(=O)(=O)c2cn(C)cn2)on1 (stereo not given)	-0.2	0.7%
Cc1ccc(C(=O)NCC(=O)OCC(=O)c2cccc3ccccc23)cc1	-0.4	2.4%
CCCNC(=O)C1(C)CCCN(C(=O)c2ccc3ccccc3c2)C1 (stereo not given)	-1.1	1.1%
CC(O)(c1cccc(F)c1)c1nc(-c2cccc3cccnc23)cs1 (stereo not given)	-0.7	-17.0%
CCOC(=O)[C@]12CCC=C1N(Cc1ccccc1)C(=O)[C@H](CC(=O)N1CCN(C(=O)c3ccco3)CC1)C2	-0.6	-7.7%
CCc1nc2ccc(C(=O)Nc3cccc(NS(C)(=O)=O)c3)cn2c1N(C)CCCc1ccccc1	-1.0	-2.7%
COCCNC(=O)C1(C)CCN(C(=O)c2ccc(C(F)(F)F)nc2C)C1 (stereo not given)	0.2	0.2%
C[C@@H]1COc2cc(N3CC[C@H](O)C3)ccc2S(=O)(=O)N1	-0.1	-3.9%
Nc1ccc(NC(=O)c2cc(Cl)ccc2O)c(Cl)c1	-1.3	-4.0%

Remaining list, next part
SMILES	TRPML1 agonist	ClpP mod
CCCNC(=O)c1cc(C2CCCN(C(=O)c3ccc(OC)cc3)C2)on1 (stereo not given)	-0.3	-0.2%
Nc1ccc2c(c1)C=C/C2=C\c1ccccc1	-0.4	-1.0%
CCc1nc2c(OCc3ccccc3)cccn2c1N(C)C(=O)COc1ccccc1	-0.4	-0.1%
COc1ccc(C(N)c2csc(Nc3cc(Oc4ccccc4)ncn3)n2)cc1 (stereo not given)	0.9	-0.3%
C=CCOc1cccn2c(N(C=O)Cc3ccccc3)c(CC)nc12	-0.3	-4.4%
COc1ccccc1-c1cnc(C(O)c2ccc(C)cc2)[nH]1 (stereo not given)	-0.7	-8.2%
C#Cc1cccc(Nc2nc(NC(C)C)nc3ccsc23)c1	-1.1	3.5%
Cc1ccc(-c2nc3cc(C)c(Br)c(C)n3c2Cc2cccc(Cl)c2)cc1	-0.5	0.8%
COC(=O)c1ccc2nc(-c3ccc(F)cc3)c(CC3CCCCC3)n2c1	-0.1	-12.3%
CC(=O)NCCNC(=O)C1(C)Cc2c(-c3ccc(C(N)=O)cc3)ccnc2O1 (stereo not given)	-0.2	?
COc1ccccc1-c1cnc(C(O)c2cc(Cl)cc(Cl)c2)[nH]1 (stereo not given)	-0.1	0.3%
CCOC(=O)[C@]12CCCC=C1N(Cc1ccc(Cl)cc1Cl)C(=O)[C@H](CC(=O)N1CCSCC1)C2	-0.7	1.3%
CCOC(=O)[C@]12CCC=C1N(CCC1=CCCCC1)C(=O)[C@H](CC(=O)N1CCN(C(=O)C3CC3)CC1)C2	-0.6	-1.2%
COc1ccc(CN2C[C@@H](CO)O[C@@H](n3cnc4c(NC5CCC5)ncnc43)C2)cc1	-0.5	0.1%
COc1cc2c(NC3CCN(C)CC3)nc(N3CCCN(C)CC3)nc2cc1OCCOCCN(C)C	-0.6	4.3%
CCc1nc2ccc(C(=O)N3CCN(C(=O)c4ccco4)CC3)cn2c1N(C)Cc1ccc(OC)cc1	-1.2	0.3%
CCCCNC(=O)C[C@@H]1C[C@@]2(C(=O)OC)CCCCC=C2N(Cc2ccccc2)C1=O	-0.5	0.0%
CC1(C(=O)NCc2cccc(C(F)(F)F)c2)CCN1Cc1ccc(-c2ccccc2)o1 (stereo not given)	0.3	-9.7%
Cc1ccc(S(=O)(=O)N(C)CCCN(C)c2nc(-c3cccs3)nc3ccccc23)cc1	0.3	?
CCCNC(=O)C1(C)CCCN(C(=O)c2cc3ccccc3s2)C1 (stereo not given)	-0.6	-0.6%
COc1ccc(Cc2c(C(C)(C)C)nc3ccc(Cl)cn23)c(C)c1	-0.4	0.1%
O=C(NCc1ccccc1)c1ccc([N+](=O)[O-])cc1	-0.7	2.1%
Cc1nc2c(OCc3ccc(C#N)cc3)cccn2c1N(C)Cc1cccs1	-1.4	-3.8%
Cc1cccc(C)c1NC(=O)C(c1ccccc1)N1CCN(c2ccc(C(F)(F)F)cn2)CC1 (stereo not given)	-0.2	5.4%
COc1cc(CNc2ncnc3c2ncn3[C@H]2CN(Cc3ccc(C(=O)O)cc3)C[C@@H](CO)O2)cc(OC)c1OC	-0.2	-3.4%

(more compounds)
SMILES	TRPML1 agonist	ClpP mod
Cc1ccc(Cn2c(C)c(C(=O)NCc3cccc(C(F)(F)F)c3)sc2=O)cc1	-0.1	-0.4%
COC(=O)[C@]12CCCCC=C1N(Cc1ccco1)C(=O)[C@H](CC(=O)NCc1ccc(C)o1)C2	-0.7	-1.2%
Clc1cccc(-c2cccc3nccn23)c1Cl	-1.0	?
O=C(NCc1ccco1)c1ccc(-c2ccc3nccn3c2)cc1	-0.4	-16.7%
CC(C)C[C@H]1CNC(=O)C(=O)N1C[C@@H]1CCCN1C[C@H](CC(C)C)N1C[C@H](Cc2ccc(O)cc2)N(CCc2ccccc2)C(=O)C1=O	-0.1	-0.2%
CCCS(=O)(=O)NC(=O)C1(C)CCN(C(=O)c2cncc(Br)c2)C1 (stereo not given)	-0.3	0.9%
CCc1nc2c(OCc3cc(Cl)cc(Cl)c3)cccn2c1N(C)C(=O)Nc1ccccc1OC	-0.4	-27.6%
Cn1c(OCC2CCCO2)nc2cc(-c3ccccc3)sc2c1=O (stereo not given)	-0.5	-27.0%
COc1ccc(-c2csc(C(C)(O)c3ccc(F)c(F)c3)n2)cn1 (stereo not given)	-0.5	-3.2%
CC1(c2nnnn2Cc2ccccc2)CCC(=O)N1CCCN1CCOCC1 (stereo not given)	-0.1	-1.1%
CC1=C(C(=O)N2CCCCCC2)CC(CC(=O)NCCCCc2ccccc2)C(=O)N1CCC1=CCCCC1 (stereo not given)	-0.1	1.7%
Cc1cnc2c(C)cccc2c1/C=C/c1ccc(N(C)C)cc1	0.0	0.5%
O=S1(=O)CC(N2CCN(Cc3ccccc3F)CC2)CN1Cc1cn(Cc2ccc(F)cc2)nn1 (stereo not given)	-0.5	1.5%
CCc1nc2c(OCCOc3ccccc3)cccn2c1N(C)C(=O)c1ccc(OC)cc1	-0.7	-0.7%
OCCN(CCO)c1ccc(/C=C/c2ccnc3ccccc23)cc1	5.5	-13.4%
CCc1nc2ccc(C(=O)N3CCN(c4ccccc4)CC3)cn2c1N(C)CCCc1ccccc1	-0.9	-6.1%
C=C1C=C(C(F)F)n2ncc(C(=O)NCc3ccc(Cl)cc3)c2N1	-1.1	-4.5%
O=C(C[n+]1cc(Br)cc(Br)c1)c1ccc(I)cc1	0.3	0.9%
CCN(CC)c1nc(C#N)nc(OC)n1	-0.4	-16.5%
CC1(C(=O)NS(=O)(=O)c2ccc3ccccc3c2)CCN1C(=O)C1(c2ccc(Cl)cc2)CCC1 (stereo not given)	-0.8	1.7%
COc1ccc(C2Nc3ccccc3C(=O)N2Cc2ccccc2)cc1COc1ccc([N+](=O)[O-])cc1 (stereo not given)	-0.4	-3.8%
CC1(C(=O)NS(=O)(=O)c2cccc(F)c2)CCN1C(=O)Cc1ccc(-c2ccccc2)cc1 (stereo not given)	-0.3	0.1%
NC(Cc1ccc(C(F)(F)F)cc1)c1csc(NC(=O)Nc2ccccc2Cl)n1 (stereo not given)	0.9	-2.0%
COc1ccccc1CNc1nc(NCCN2CCNC2=O)c2sccc2n1	-1.0	-27.2%
CC(=O)Nc1cnc(-c2cc(C)c(O)c(C)c2)cn1	-0.5	-18.7%

4 compounds picked at random from those above, as already listed:
SMILES	TRPML1 agonist	ClpP mod
CC1(C(=O)NS(=O)(=O)c2ccc3ccccc3c2)CCN1C(=O)C1(c2ccc(Cl)cc2)CCC1 (stereo not given)	-0.8	1.7%
Cc1nc(NC(=O)C(C)(C)C)sc1C(=O)Cn1cc(CCc2ccccc2)nn1	-0.6	0.0%
COc1ccc(Cc2c(C(C)(C)C)nc3ccc(Cl)cn23)c(C)c1	-0.4	0.1%
O=C(NCc1ccco1)c1ccc(-c2ccc3nccn3c2)cc1	-0.4	-16.7%

(list continues)
SMILES	TRPML1 agonist	ClpP mod
Cc1nc([N+](=O)[O-])cn1CC(=O)c1ccc2c(c1)OCCO2	0.2	-0.4%
CCc1ccc2cc(F)cc(F)c2n1	-0.1	-2.0%
Cn1c(=O)c2cc(NC(=O)NCCc3cccs3)ccc2n1Cc1ccccc1	-0.7	4.8%
CCC(C)NC(=O)c1ccc2nc(-c3cccs3)c(-c3cccs3)nc2c1 (stereo not given)	-0.3	-28.1%
CC1(c2nnnn2-c2ccc3c(c2)OCCO3)CCC(=O)N1Cc1cccc(C(F)(F)F)c1 (stereo not given)	-0.2	-1.3%
O=C(Nc1ccc(Cl)cc1)c1csc([C@@H]2O[C@H](CO)[C@@H](O)[C@H]2O)n1	-0.6	1.4%
Cn1c(=S)[nH]c2cc(C(=O)N3CCN(C(=O)c4ccccc4)CC3)ccc2c1=O	-0.4	-0.6%
O=C(Nc1ccc2c(c1)OCCO2)C(CCc1ccccc1)N(Cc1ccccc1)Cc1ccccc1 (stereo not given)	0.1	-1.7%
O=C1CCCN1CCCNc1nc(NCc2ccccc2)nc2ccsc12	?	-16.4%
COC(=O)c1ccccc1NC(=O)c1cnn2c1NC(=C1CC1)C=C2C(F)F	-1.0	-21.5%
COc1ccc(C2Nc3ccccc3C(=O)N2c2ccc(Cl)cc2)cc1COc1ccc(NC(C)=O)cc1 (stereo not given)	-0.8	4.5%
Cc1cc(C)n2c(NC3CCCC3)c(-c3cccnc3)nc2n1	-0.2	-4.1%
COc1ccccc1C(=O)Nc1nnc([C@@H]2C[C@H](O)[C@@H](CO)O2)s1	-0.5	-12.3%
CCCCNc1c(-c2cccc(OC)c2)nc2nc(C)cc(C)n12	-0.9	-4.3%
Oc1ccc2sc(-c3ccccc3O)c(-c3ccc(OCCN4CCCCC4)cc3)c2c1	2.5	-6.5%
CCCCCCCCCC[n+]1ccc(/C=C/c2c(C)[nH]c3ccccc23)cc1	122.9*	-0.1%
CCOC(=O)CNC(=O)N(C)[C@H]1C[C@H]2c3[nH]c4ccccc4c3CCN2C[C@H]1[C@H](C)O	1.1	-26.1%
CC(C)(C)c1ccc(CC(=O)N2CCC2(C)C(=O)Nc2ccc3[nH]ncc3c2)cc1 (stereo not given)	-0.5	0.1%
CC(C)(C)C(=O)CSc1n[nH]c(-c2ccccc2)n1	-0.5	-0.6%

Full records from above:
Profile of CCN(CC)c1nc(C#N)nc(OC)n1 = TRPML1 agonist = -0.4; ClpP mod = -16.5%
Profile of CC(O)(c1cccc(F)c1)c1nc(-c2cccc3cccnc23)cs1 (stereo not given) = TRPML1 agonist = -0.7; ClpP mod = -17.0%
Profile of C=C1C=C(C(F)F)n2ncc(C(=O)NCc3ccc(Cl)cc3)c2N1 = TRPML1 agonist = -1.1; ClpP mod = -4.5%

Source: PubChem
